Sa RN4220 lethal = kills Staphylococcus aureus RN4220. S. aureus RN4220 growth, OD600, 16 h. AID 1259311. 330,000 tested, 0.33% active. inhibition, % (no concentration beside the values);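 active = z-score of -3 or lower and OD600 up to 0.18 on both plates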;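 also: plate controls were untreated cells for no effect and reference antibiotic for full effect; stock transfer was 100 nL into about 80 µL; one replicate is shown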
PrP 5UTR inh = inhibition of PrP 5' UTR reporter expression; cell-based PrP 5' UTR mRNA reporter, plate reader; inhibition, % (no concentration beside the values); 340,000 tested, 0.35% active; AID 488862;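 active = every replicate at 50% or more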;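 also: 0 = median of the neutral control wells; tested in H4 reporter cells; numbers are from one replicate; inactives centre near -14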
Sa ugtP lethal = growth inhibition of S. aureus ugtP deletion strain; 330,000 tested, 0.54% active; growth inhibition, % (concentration not given with the values); S. aureus RN4220 ugtP deletion, OD600 growth, 16 h; some inactives read as strong as hits;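 active = z-score under -3 and OD600 up to 0.15 on both plates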;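 also: plate controls were untreated wells for no effect and antibiotic for full effect; wells of about 80 µL received 100 nL stock; the first replicate is given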
BJeLR lethal = BJeLR cell viability loss | BJeLR (HRASV12) viability, CellTiter-Glo ATP luminescence, 48 h; reference of the scale not given here | inhibition, % (concentration not given with the values) | 300,000 tested, 0.17% active;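 active = replicate mean above 50%; inconclusive = above 50% but judged a plate artefact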;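 also: 50 nL library stock added to about 25 µL; numbers are from one replicate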
Bead autofluor = flagged as autofluorescent in microsphere protease counterscreen | compound autofluorescence counterscreen, microsphere flow cytometry; active compounds read high | 360,000 tested, 3.1% active | fluorescence intensity (concentration not given with the values);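 active = at least 3 SD above the mean of all compounds, about 16000 in these data; inconclusive = too few beads counted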;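 also: 100 nL of 1 mM stock went into each well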
Mtb hypoxia inh = reduces hypoxia-regulated biosensor signal in M. tuberculosis. M. tuberculosis hypoxia-regulated fluorescent reporter, fluorescence. fluorescence inhibition, % (concentration not given with the values). 300,000 tested, 0.1% active;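 active = 35 to 45% if threefold the growth effect, above 45% if 1.5-fold the growth effect; inactive = the rest, general growth blockers included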;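 also: wells of about 50 µL received 100 nL stock; 0% = vehicle wells and 100% = reference inhibitor wells; whole bacteria with a GFP reporter of the hypoxia response; strong numbers were not always called active; many hits fall short of the cut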
Mtb hypoxia inh growth = further read-out of Mtb hypoxia inh, marked with its call; growth inhibition, %; measured here: M. tuberculosis growth (absorbance);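 0% = vehicle and 100% = reference antibiotic; read after six days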
Starred values were filed as active, the others as inactive; ? = inconclusive; · = no result given.

Structure	PrP 5UTR inh	Sa ugtP lethal	BJeLR lethal	Mtb hypoxia inh	Mtb hypoxia inh growth	Sa RN4220 lethal	Bead autofluor
COc1ccccc1CC(=O)Nc1ccc(-c2noc(COc3ccc(Br)cc3)n2)cc1	-21	-18	14	-4	-1	4.6	8657
COc1ccc(C(CNCC(=O)Nc2ccccc2F)N(C)C)cc1 (configuration not stated)	-2	2	-2	-9	2	1.7	3903
C=CCOCCN(C)C1=NS(=O)(=O)c2ccccc21	-2	2	-8	11	5	5.1	3308
O=C(COC(=O)c1ccccc1O)Nc1ccc(OC(F)F)cc1	-21	4	3	·	·	-2.3	4797
O=C(NC(c1ccccc1)c1ccccc1)C1(c2cccs2)CCOCC1	-22	5	-13	6	2	5.5	2099
Cc1cc(-c2onc3ccc(Cl)cc23)ccc1O	-31	5	-4	5	7	9.2	3575
O=C(COC(=O)CCC(=O)c1ccc(F)cc1)Nc1ccc(F)cc1F	-13	1	3	6	5	1.9	4222
O=C(Cn1c(=O)[nH]n(-c2ccccc2)c1=O)N1CCCc2ccccc21	-41	-6	6	3	8	6.7	3790
CCOC(=O)c1c(NC(=O)CSc2nc3ccccc3s2)sc(C)c1C	4	33	0	13	-7	0.5	?
COc1ccc(C(=O)NC2CC(C)(C)NC(C)(C)C2)cc1OC	-40	10	-3	10	1	-1.8	3564
Brc1c(C[n+]2ccccc2)nc2ccccn12	-22	1	-7	-11	8	-2.2	4182
CCc1c(O)nc(SCC(=O)Nc2cc(C)on2)n(-c2ccccc2)c1=O	-23	-1	3	0	-5	-2.3	6580
C=CCOC(=O)C1=C[C@@H](c2ccccc2)[C@H](CCCO)[C@@H](OCC)O1	-15	·	-1	·	·	·	3768
Cc1ccc(S(=O)(=O)N(C)CCCC(=O)NC(C)(C)CO)cc1	-66	5	0	10	2	2.4	5368
O=C(NC(=S)Nc1ccc(NC(=O)c2cccs2)cc1)c1ccco1	-13	18	-9	·	·	0.4	1978
O=C(NCCc1ccc(C(F)(F)F)cc1)C1CC(=O)N(c2ccc3c(c2)OCCO3)C1 (configuration not stated)	1	10	·	-3	-4	5.5	2877
O=c1c(Cc2ccc(Cl)cc2)c(O)ccn1Cc1cccc(Cl)c1	-29	9	-5	·	·	9.1	2609
CC(C)C[C@H](NC(=O)c1nc[nH]c1C(=O)NCC(=O)OC(C)(C)C)C(=O)OC(C)(C)C	-8	·	4	·	·	·	3804
CCc1ccccc1N=C1S/C(=C/c2ccccc2OCC(=O)N2CCOCC2)C(=O)N1C	-10	-14	-4	0	-5	1.5	2453
CCOC(=O)N1CCN(C(=O)CSc2nnc(-c3cccc(Cl)c3)o2)CC1	15	3	0	·	·	2.0	4349
COc1ccccc1NC(=O)NC1CC(=O)N(c2ccc3c(c2)OCCO3)C1 (configuration not stated)	-16	-4	1	-15	-13	1.1	4338
COc1cc(/C=N/N=C2/NC(=O)C(CC(=O)O)S2)ccc1OCc1cccc(Cl)c1 (configuration not stated)	-57	·	10	·	·	·	2555
CCCCC(=O)N=c1sc2c(OC)ccc(OC)c2n1C	-3	3	-11	0	4	2.8	4776
CC[C@H](C)NC(=O)CCCCCn1c(=S)[nH]c2c([nH]c3ccc(OC)cc32)c1=O	66*	·	-6	·	·	·	3316
Cc1ccc(NC(=O)CN2C(=O)COc3ccc(S(=O)(=O)N4CCOCC4)cc32)cc1F	2	0	0	3	-6	1.8	5558
O=C(/C=C/c1ccc(Br)o1)Nc1nccs1	-44	·	-5	·	·	·	4415
Cc1cc(C)c2c(N)c(C(=O)NN3CC(=O)N(c4cccc(Cl)c4)CC3=O)sc2n1	-14	5	-7	-7	0	2.7	5252
CSc1cccc(CNC(=O)C2CCC(=O)N(CCCN3CCCC3=O)C2)c1 (configuration not stated)	-25	-1	-1	4	-2	-0.1	6529
O=[N+]([O-])c1ccccc1OCC(=NO)c1ccccc1	·	9	·	1	11	4.1	·
O=C(CCCOc1ccc(Cl)cc1)Nc1cccc(C(=O)O)c1	-8	10	8	2	1	2.2	4447
CCOC(=O)c1sc2nccc(N(C)C)c2c1N=CNOCc1ccccc1	-2	-2	-1	·	·	6.0	1934
COc1ccc(/C(N)=N/OC(=O)c2cccc([N+](=O)[O-])c2C)cc1	-44	2	11	9	13	0.1	4337
Cc1ccc(N(CN2C(=O)c3ccccc3C2=O)C(=O)c2ccc([N+](=O)[O-])cc2[N+](=O)[O-])cc1	-16	1	2	6	3	5.7	2527
COc1cccc(CNC(=O)c2ccc(NC(=O)CC3SC(N4CCCC4)=NC3=O)cc2)c1 (configuration not stated)	-22	-1	·	3	8	-1.7	3746
CN(C)S(=O)(=O)c1ccc(Cl)c(C(=O)NNC(=O)Cn2ccc(C(F)(F)F)n2)c1	-16	0	·	3	-3	4.1	6543
O=C(N/N=C/c1cccs1)c1ccc2ccccc2c1	-54	·	6	·	·	·	5266
CC(C)C[C@H](NC(=O)c1[nH]cnc1C(=O)N[C@@H](C)c1ccccc1)C(=O)OC(C)(C)C	-1	·	3	·	·	·	3900
CC(OC(=O)c1ccc(S(=O)(=O)NCc2ccco2)cc1)C(=O)Nc1ccc(Cl)cn1 (configuration not stated)	1	7	5	9	9	4.8	2127
CSc1nnc(NC(=O)C2CCCCC2)s1	-23	6	·	-2	6	1.6	5830
COC(=O)C1NC(C(NC(=O)COc2ccccc2)C(=O)NCc2ccccc2)SC1(C)C (configuration not stated)	·	4	·	12	10	5.9	·
CC(=O)c1nn(-c2ccc(Br)cc2)cc1C(=O)c1ccco1	-8	-12	2	-6	-6	-4.7	9899
CCc1c(C(=O)Nc2ccc(C)c(C)c2)[nH]c(C)c1C(C)=O	-51	·	-2	·	·	·	4499
CCN(Cc1ccccc1)C(=O)CN1C(=O)COc2ccc(S(=O)(=O)N3CCCCCC3)cc21	-20	4	5	8	1	-1.2	5416
O=c1ccc(-c2ccc(S(=O)(=O)Nc3ccccc3Cl)o2)n[nH]1	-4	5	0	14	13	7.8	5308
Cn1nc(CC(=O)Nc2ccc3c(c2)CCC3)c2ccccc2c1=O	-8	-3	2	3	4	2.4	3265
CCCCOc1ccc(OCCNC(=O)c2ccco2)cc1	-18	5	9	-2	14	0.0	3757
COc1ccc(OCCCCOc2ccccc2Cl)cc1	-30	65	-10	6	1	3.8	5625
CCC(=O)Nc1cccc(NC(=O)CSc2nnnn2C)c1	-18	8	2	3	-6	0.6	16778*
CCC(NC(=O)c1ccccc1O)c1ccccc1 (configuration not stated)	-22	-6	4	3	-2	3.5	10856
COc1ccc(C(=O)NN=Cc2ccc(OC)c(CSc3ccccn3)c2)cc1	·	4	·	-4	8	0.6	·
CCOc1cc(C=O)ccc1OS(=O)(=O)c1ccc(NC(C)=O)cc1	-36	-3	-6	6	4	3.5	2564
O=C(Nc1ccccc1Cc1ccccc1)c1ccc2c(c1)SC1=NS(=O)(=O)CCN12	-27	1	11	14	7	4.6	2040
O=C(NCC1OCCc2ccccc21)c1cc(COc2ccc(F)cc2Cl)on1 (configuration not stated)	-20	2	-8	8	6	0.4	2534
COc1ccc(N(CC(=O)Nc2ccc(C)c(F)c2)S(=O)(=O)c2c(C)noc2C)cc1	-22	7	-6	8	0	2.6	5087
Cc1onc(-c2ccccc2)c1NC(=O)N(CCC#N)Cc1ccccc1	-19	5	-1	7	3	-1.2	5938
COc1ccc(/C=C2\SC(=O)N(CCc3nnc(N)s3)C2=O)cc1	-72	-10	6	-4	-5	-1.6	6008
CC(=O)Nc1ccccc1C(=O)OCc1ccccc1F	-38	2	15	-2	-7	9.6	4558
O=S(=O)(Nc1cccc(S(=O)(=O)N2CCCCCC2)c1)c1ccccc1	-15	-3	-3	3	6	16	4706
Cn1c(=O)n(C)c2cc(NC(=O)CSc3nnc(-c4ccccc4O)n3-c3ccccc3)ccc21	-2	-17	5	·	·	3.6	2744
Cc1ccc(Cl)cc1N1CCN(S(=O)(=O)c2c(C)[nH]c(=O)[nH]c2=O)CC1	-18	-6	-8	3	14	1.8	19342*

2 compounds from above, reduced to BJeLR lethal, Bead autofluor and Mtb hypoxia inh.
structure	BJeLR lethal	Bead autofluor	Mtb hypoxia inh
COC(=O)C1NC(C(NC(=O)COc2ccccc2)C(=O)NCc2ccccc2)SC1(C)C (configuration not stated)	·	·	12
CC(=O)c1nn(-c2ccc(Br)cc2)cc1C(=O)c1ccco1	2	9899	-6

Additional entries.
Structure	PrP 5UTR inh	Sa ugtP lethal	BJeLR lethal	Mtb hypoxia inh	Mtb hypoxia inh growth	Sa RN4220 lethal	Bead autofluor
Cc1ccc(S(=O)(=O)N/N=C/c2c(C)nn(-c3ccccc3)c2C)cc1	-17	·	1	·	·	·	2196
N#CC(C#N)=Cc1cccn1-c1ccc(C(=O)O)cc1	-24	·	-1	·	·	·	2289
CCN(CCO)c1ncnc2onc(-c3ccc(F)cc3)c12	-41	5	-8	8	2	2.1	3616
COc1ccccc1NC(=O)NNC(=O)c1ccc2c(c1)NC(=O)C(C)(C)O2	-14	3	-6	6	-1	2.7	2922
O=C(COC(=O)/C=C/c1cccc(C(F)(F)F)c1)NC(=O)NCc1ccccc1	-17	9	·	-5	-2	4.1	4519
COc1ccc(OCC(=O)NN=C2C=C(C)CC2)cc1	·	-4	·	4	5	8.0	·
CCN(C(=O)CSc1ccccn1)C1CCCCC1	-19	-2	·	9	3	5.7	4073
O=C(CSc1nnc(CNC(=O)C23CC4CC(CC(C4)C2)C3)n1-c1ccc(F)cc1)Nc1ccccc1	-10	6	-18	4	-2	5.2	2470
Cc1ccc(C(=O)/C=C2\NCC(C)NC2=O)cc1 (configuration not stated)	19	1	8	3	5	-13	2410
Brc1ccccc1Cn1c(-c2cscn2)nc2ccccc21	-29	-9	8	12	5	-5.9	7932
C[C@]12CCC3C(CC[C@H]4CCCC[C@]34C)C1CC[C@@]2(O)CNCCO (some centres not stated)	-28	-20	3	·	·	-10	4519
Cc1nc(N)sc1C(=O)NN=Cc1ccccc1[N+](=O)[O-]	·	3	·	-3	1	1.5	·
N#C/C(=C(\O)c1ccco1)c1ccccn1	-3	·	-1	·	·	·	2587
CC1CCCCC1NC(=O)CSc1nc2ccccc2[nH]1 (configuration not stated)	1	-3	-1	11	-4	2.2	3180
O=C(CSc1ccccc1C(=O)O)NCC1CCCCC1	-17	3	-2	5	1	0.0	5328
O=S1CCCSC1c1cccnc1 (configuration not stated)	0	4	-8	4	5	0.3	21912*
Cc1ccc(S(=O)(=O)CC(=O)c2cc(C)c(O)c(C)c2)cc1	-15	1	-2	9	11	4.4	2426
CC(=O)Nc1cc2nn(-c3ccccc3)nc2cc1Cl	-111	3	-7	·	·	-0.4	3409
COc1ccc(NC2CCCN(C(=O)CCN3CCCO3)C2)cc1 (configuration not stated)	-13	7	-3	6	13	0.5	5306
COc1ccc(NC(=O)c2cccc3c2C(=O)N(C2CCCCC2)C3)cc1	2	-5	11	6	2	2.8	5355
Cc1ccc(C(c2cc(Cl)c3cccnc3c2O)N2CCN(C)CC2)cc1 (configuration not stated)	3	·	4	·	·	·	4618
CC(=O)c1ccc(N2CCc3ccccc3C2)c([N+](=O)[O-])c1	-45	4	-8	11	12	7.7	5678
COC(=O)c1ccccc1NC(=S)NC(=O)CC(C)C	9	48	1	0	6	1.0	22351*
CCOc1ccc(NC(=O)c2c[nH]n3c(=O)cc(C4CCN(C(=O)OC(C)(C)C)CC4)nc23)cc1	·	-3	-1	9	3	1.5	5051
CCOC=C1C(=O)N(C(C)=O)c2cc(OC)c(OC)cc21	-17	1	·	8	4	0.3	4010
O=C(Cn1ncc(N2CCCC2)c(Br)c1=O)c1ccc(Cl)cc1	-85	2	0	8	2	7.7	4434
O=C(Cc1cccs1)NNC(=S)NC(=O)c1ccco1	-24	5	1	6	6	22	2428
COc1ccccc1OCC(=O)Nc1ccccc1C(=O)N1CCCC1	-9	-3	6	-5	6	-1.7	3688
CN(C)S(=O)(=O)c1ccc(N2CCCC2)c(C(=O)Nc2nc(-c3cc(F)ccc3F)cs2)c1	2	-6	-8	-2	3	8.8	10322

Source: PubChem BioAssay
